# hgDAF-12 ag: activates the H. glycines DAF-12 receptor ligand-binding domain | activation, % at 6.8 µM | actives 1.8% (n = 370,000) | HEK293 GAL4-hgDAF12 UAS-luciferase reporter, agonist luminescence; normalized to butyrate control | AID 687014;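 active means activation above a cutoff set at the mean of all screened compounds plus 3 SD, cut at about 10% in these data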;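 further: 0% = DMSO wells and 100% = sodium butyrate wells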
# hcDAF12 agonist: H. contortus DAF-12 activation, primary screen; actives 1.4% (n = 370,000); activation, % at 6.8 µM; HEK293 hcDAF-12 lit1-tk-luc reporter, luminescence; 0% DMSO, 100% Δ7-dafachronic acid;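 active means activation above the mean of all tested compounds plus 3 SD, cut at about 5.5% in these data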;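 further: 100% = response to 3 µM Δ7-dafachronic acid high control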
# ssDAF12 agonist: activators of S. stercoralis DAF-12 nuclear receptor; HEK293 ssDAF-12/GRIP1 lit1-tk-luc reporter, luminescence; % of 3 µM dafachronic acid response; activation, % at 6.8 µM; actives 1% (n = 370,000);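 active means activation above the mean over all tested compounds plus 3 SD, cut at about 0.9% in these data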;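 further: 0% = DMSO-only wells and 100% = 3 µM delta7-dafachronic acid wells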
# GAA850 FXN act: frataxin GAA850 promoter activation. AID 540364. activation, % at 6 µM. HEK293 lucGAA850 FXN promoter luciferase reporter, 24 h; percent of 10 µM SAHA response. actives 0.56% (n = 360,000);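 active means activation above the average of all compounds screened plus 3 SD, cutoff fixed separately per campaign, cut at about 7.5% in these data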;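 further: 0% = DMSO wells and 100% = 10 µM SAHA wells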
# SMARCA2 activ: activators of SMARCA2 function; MG213 cells, MMTV-luciferase reporter, dexamethasone, overnight; activation, % at 9.1 µM; actives 1% (n = 370,000); in the data active means activation above about 7.8%;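 further: 0% = vehicle wells and 100% = reference activator wells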
# DAX1 inh-1: inhibits human nuclear receptor DAX1; inhibition, % at 6.75 µM; HEK293 Gal4-DAX1 luciferase reporter, luminescence; AID 504766; actives 0.99% (n = 340,000); P51843;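 active means inhibition above the mean over all tested compounds plus 3 SD, cut at about 4.2% in these data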;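 further: 0% = DAX1-transfected cells with DMSO and 100% = empty-vector control cells with DMSO; inhibition shows as a rise in luminescence from relieved DAX1 repression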
# HGIII-sPLA2 inh: Inhibits HGIII-sPLA2 liposome hydrolysis, primary screen; AID 743126; Q9NZ20; actives 0.56% (n = 370,000); inhibition, % at 12.2 µM; QFRET BODIPY PC-A2 liposome hydrolysis, fluorescence;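 active means inhibition above mean plus 3 SD of compounds lying within the high and low control bounds, cut at about 19% in these data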;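 further: 0% = median of test compound wells and 100% = no enzyme DMSO wells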
# NPR1 activator: GC-A (human) enzyme activation; P16066; HEK293 GC-A cells, cGMP TR-FRET, EC30 ANP; 0% at EC30 ANP, 100% saturating ANP; activation, % at 10 µM; actives 0.14% (n = 370,000); AID 1671463; in the data active means activation above about 40%
# GC-B act: GC-B (human) receptor activation | HEK293-GC-B cells, CNP EC30, cGMP TR-FRET; 0% at EC30 CNP, 100% saturating CNP | actives 0.11% (n = 370,000) | activation, % at 10 µM | P20594 | AID 1920062;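 active means activation at 10 µM reaching about 35% in either raw or pattern-adjusted values, limit read from the data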
# DAX1 inh-2: blocks DAX1 repression of SF-1 activated StAR promoter | AID 652010 | actives 1.1% (n = 370,000) | HEK293T StAR-luciferase reporter, SF-1/DAX-1 repression relief | inhibition, % at 6.8 µM;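 active means inhibition above the mean over all tested compounds plus 3 SD, cut at about 3.6% in these data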;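 further: 0% = DAX-1 cells with DMSO and 100% = cells lacking DAX-1 with DMSO; higher inhibition means more luminescence from relief of DAX-1 repression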
# Starred values were filed as active, the others as inactive. The list is partial, so the mix of outcomes need not match the whole.
SMILES,hgDAF-12 ag,hcDAF12 agonist,ssDAF12 agonist,GAA850 FXN act,SMARCA2 activ,DAX1 inh-1,HGIII-sPLA2 inh,NPR1 activator,GC-B act,DAX1 inh-2
CCCCn1c(N)c(N(C)C(=O)c2cc3c(F)cccc3s2)c(=O)[nH]c1=O,-0.1,-0.6,-1.2,1.4,0,-0.2,-8,0,5,-0.8
COc1ccc(Cl)cc1NC(=O)c1cc(S(=O)(=O)N2CCCC2)cn1C,2.3,-1.2,-0.6,0.3,5,1.9,0,-10,-3,2.0
OC(CCN1CCCCC1)(c1ccccc1)C1C[C@@H]2C=C[C@H]1C2 (some centres not stated),1.8,-0.5,-0.7,-1.1,-3,3.2,2,-7,0,-0.4
Cc1ccc(C)c(S(=O)(=O)NC(C)CCc2ccccc2)c1 (configuration not stated),1.5,-3.0,-1.7,-0.3,-1,-0.2,-18,-6,-3,0.0
O=C(c1ccccc1)C(O)(CN1CCCCC1)c1ccccc1 (configuration not stated),0.0,0.4,-0.9,-1.6,1,-1.0,-5,-6,-3,-0.8

# Copied from the listing, 5 compounds:
SMILES,hgDAF-12 ag,hcDAF12 agonist,ssDAF12 agonist,GAA850 FXN act,SMARCA2 activ,DAX1 inh-1,HGIII-sPLA2 inh,NPR1 activator,GC-B act,DAX1 inh-2
CCCCn1c(N)c(N(C)C(=O)c2cc3c(F)cccc3s2)c(=O)[nH]c1=O,-0.1,-0.6,-1.2,1.4,0,-0.2,-8,0,5,-0.8
COc1ccc(Cl)cc1NC(=O)c1cc(S(=O)(=O)N2CCCC2)cn1C,2.3,-1.2,-0.6,0.3,5,1.9,0,-10,-3,2.0
OC(CCN1CCCCC1)(c1ccccc1)C1C[C@@H]2C=C[C@H]1C2 (some centres not stated),1.8,-0.5,-0.7,-1.1,-3,3.2,2,-7,0,-0.4
Cc1ccc(C)c(S(=O)(=O)NC(C)CCc2ccccc2)c1 (configuration not stated),1.5,-3.0,-1.7,-0.3,-1,-0.2,-18,-6,-3,0.0
O=C(c1ccccc1)C(O)(CN1CCCCC1)c1ccccc1 (configuration not stated),0.0,0.4,-0.9,-1.6,1,-1.0,-5,-6,-3,-0.8

# Single records (already shown). Values in the order: hgDAF-12 ag	hcDAF12 agonist	ssDAF12 agonist	GAA850 FXN act	SMARCA2 activ	DAX1 inh-1	HGIII-sPLA2 inh	NPR1 activator	GC-B act	DAX1 inh-2
# COc1ccc(Cl)cc1NC(=O)c1cc(S(=O)(=O)N2CCCC2)cn1C as listed: 2.3	-1.2	-0.6	0.3	5	1.9	0	-10	-3	2.0
# OC(CCN1CCCCC1)(c1ccccc1)C1C[C@@H]2C=C[C@H]1C2 (some centres not stated) as listed: 1.8	-0.5	-0.7	-1.1	-3	3.2	2	-7	0	-0.4
